TsaE inh – inhibitors of E. coli YjeE (TsaE). P0AF67. purified YjeE, fluorescence polarisation of a bound ADP probe. Potency, µM. 0.05% of 71,000 active; active = well fitted falling curve; inconclusive = weaker or top-dose-only fall, or a rising curve; inactive = flat or poorly fitted curve;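 also: top concentration of the series not given in the record; excess ADP was the control for the full effect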
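Purified YjeE (10 uM) with BODIPY Texas Red-labeled ADP probe (2 uM); compounds pin-transferred, 15 min at room temperature. Binding inhibition read as decreased fluorescence polarization; ADP titration as control.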
PK Bst – pyruvate kinase (B. stearothermophilus) modulation; partly purified Bacillus stearothermophilus pyruvate kinase, luminescence ATP production; ribose 5-phosphate activator present at AC10; 1.2% of 51,000 active; Potency, µM; AID 361; in the data active means potency below about 11 µM; inconclusive means mostly about 12 µM to 25 µM; inactive means weaker than that;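 the screen sought inhibitors and activators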;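 also: potency is read from the fitted curve at half-maximal effect; scaled between full activation by ribose 5 phosphate and full inhibition by luteolin; about four in five hits inhibit and the cells do not say which; series up to 57 µM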
The depositor's hits bear a star; i = inactive; ? = inconclusive; · = not tested or not shown. Only part of the results is shown. The share of hits here may be higher or lower than overall.

Sample of the layout, 4 compounds:
entry | Structure | TsaE inh | PK Bst
1 | COC(=O)c1cc(NC(=O)C23CCC(C)(C(=O)O2)C3(C)C)cc(C(=O)OC)c1 (centres undefined) | i | >57
2 | O=C(O)C1CCCN(S(=O)(=O)c2cccc3cccnc23)C1 (centres undefined) | i | ·
3 | CCCNC(=O)c1cccc(Cn2nc(C)c(Br)c2C)c1 | i | >57
4 | CCSc1nnc(NC(=O)c2cc(C)on2)s1 | i | >57

The whole of this part, from the first entry:
entry | Structure | TsaE inh | PK Bst
1 | COC(=O)c1cc(NC(=O)C23CCC(C)(C(=O)O2)C3(C)C)cc(C(=O)OC)c1 (centres undefined) | i | >57
2 | O=C(O)C1CCCN(S(=O)(=O)c2cccc3cccnc23)C1 (centres undefined) | i | ·
3 | CCCNC(=O)c1cccc(Cn2nc(C)c(Br)c2C)c1 | i | >57
4 | CCSc1nnc(NC(=O)c2cc(C)on2)s1 | i | >57
5 | Cn1cnc2c1c(=O)n(Cc1c(Cl)cccc1Cl)c(=O)n2C | i | >57
6 | CN(C)CCC(=O)c1ccc2c(c1)OCO2 | i | >57
7 | Cc1ccc(NC(=O)CSc2nnc(-c3ccco3)c(-c3ccco3)n2)cc1 | · | >26
8 | O=C(CN1CCN(Cc2ccccc2F)C1=O)NCCN1CCOCC1 | i | ·
9 | Cc1c(CN2CCCCC2)c(O)n(CCCO)c(=O)c1C#N | i | >57
10 | O=C(OCC(=O)N(C1CCCCC1)C1CCCCC1)c1ccncc1 | i | >57
11 | CCCc1[nH]nc2c1C(c1ccc(OCCN3CCOCC3)c(OC)c1)C(C#N)=C(N)O2 (centres undefined) | i | >57
12 | COc1ccc(CNS(=O)(=O)c2ccc(OC)cc2)cc1 | i | >57

Entries of single compounds as entered above. Values in the order: TsaE inh, PK Bst
O=C(CN1CCN(Cc2ccccc2F)C1=O)NCCN1CCOCC1 in the list: i, ·
Cc1c(CN2CCCCC2)c(O)n(CCCO)c(=O)c1C#N in the list: i, >57
O=C(O)C1CCCN(S(=O)(=O)c2cccc3cccnc23)C1 (centres undefined) in the list: i, ·

Remaining list, next part.
entry | Structure | TsaE inh | PK Bst
13 | CCCC[S@@](=N)(=O)CC[C@@H](N)C(=O)O | i | ·
14 | CCOC(=O)c1ccc(N=c2sc(C(=O)OC)cc(=O)n2CCCN2CCOCC2)cc1 | i | ·
15 | Cc1ccccc1[C@@H](OCCN(C)C)c1ccccc1 | i | ·
16 | COc1cccc(N2C(=O)c3ccncc3C2=O)c1 | i | >57
17 | COc1ccc(CCNC(=O)Cn2cnc3c(nnn3Cc3ccc(C)cc3)c2=O)cc1OC | i | >57
18 | Nc1nc(NC(=O)CCCC(=O)O)nn1-c1ccccc1 | i | >57
19 | COc1cc(C(=O)O)c([N+](=O)[O-])c(OC)c1OC | i | ·
20 | CCn1c(=O)c2c(nc3n2CCCN3CCc2ccccc2)n(C)c1=O | i | >57
21 | COc1ccc(C(=O)NCC(=O)Nc2ccccc2)cc1OC | i | >57
22 | CCOC(=O)Nc1nc(C)c(C(=O)N(C)C)s1 | i | >57
23 | COc1cccc(Nc2ncc3nc(-c4cccs4)c(=O)n(CCC#N)c3n2)c1 | i | ·
24 | CCc1nc2oc(C(=O)c3ccccc3)c(N)c2c2c1COC(C)(C)C2 | i | ·
25 | CC(=O)C1=C(O)C(=O)N(c2cccc(C(=O)O)c2)C1c1ccc(F)cc1 (centres undefined) | · | >11
26 | COc1ccc(Br)cc1C1CC(=O)N2CN(C)CSC2=C1C#N (centres undefined) | i | ·
27 | Cc1nc2ccccc2c(=O)n1NCc1cccs1 | i | >57
28 | O=C(c1ccc(N2CCCC2=O)cc1)N1CCOCC1 | i | >57
29 | COc1ccc(Cl)cc1NC(=O)N1CCN(C2CCCCC2)CC1 | i | >57
30 | Cc1cc(C(=O)COC(=O)CN(C)S(=O)(=O)c2ccc(Cl)cc2)c(C)n1Cc1cccs1 | i | ·
31 | COc1ccc(OC)c(C(c2nnnn2CC2CCCO2)N2CCN(C)CC2)c1 (centres undefined) | i | >57
32 | O=c1ccn(Cc2ccccc2Cl)cc1 | i | i
33 | Cc1ccc(NC(=O)COc2ccc3oc4c(c3c2)CCCC4)nc1 | i | >57
34 | CCn1c(SCC(=O)NCc2ccc3c(c2)OCO3)nnc1-c1cccs1 | i | >57
35 | Cn1c(=O)[nH]c(=O)c2c1nc(Br)n2CCSc1nc2ccccc2o1 | i | >57
36 | O=S1(=O)OC(c2ccc(O)cc2)(c2ccc(O)cc2)c2ccccc21 | i | ·
37 | O=C(Nc1cccc(F)c1)N1CC[C@@]2(CCCN(C(=O)c3ccncc3)C2)C1 | i | ·
38 | O=c1c2[nH]c3ccccc3c2ncn1Cc1cccnc1 | i | >57
39 | Cn1c(Cc2ccccc2)nnc1SCC(=O)NC1CCCCC1 | i | ·
40 | COC(=O)c1ccc(C2C(C(=O)c3cc4ccccc4o3)=C(O)C(=O)N2CCCN(C)C)cc1 (centres undefined) | · | >26
41 | Cc1cccc(C)c1NC(=O)Cn1c(=O)n(CCCC(=O)NCc2ccco2)c(=O)c2sccc21 | i | >57
42 | CCSC1=C(C#N)C(c2ccc(OC)c(OC)c2)CC(=O)N1 (centres undefined) | i | >57
43 | CCOC(=O)C(C)On1c(SC(C)C(=O)OCC)nc2ccccc2c1=O (centres undefined) | i | >57
44 | C[N+](C)(C)CC[N+]1(C)Cc2c(Cl)c(Cl)c(Cl)c(Cl)c2C1 | i | ·
45 | CCN1C(=O)c2c(C)nc3ccccc3c2C1=O | i | >57
46 | O=C1c2ccccc2S(=O)(=O)N1CC(O)Cn1ccc2ccccc21 (centres undefined) | i | >57
47 | COc1cccc(OC)c1C(=O)Nc1ccccc1N1CCCC1 | i | >57
48 | N#Cc1nc(-c2ccc(OCc3ccc(Cl)cc3)cc2)oc1N1CCC(C(N)=O)CC1 | i | 0.078*
49 | Cc1ccc2[nH]c(=O)c(-c3noc(-c4ccncc4)n3)cc2c1 | i | >57
50 | COc1ccccc1NC(=O)C1C2C=CC3(CN(Cc4cccnc4)C(=O)C13)O2 (centres undefined) | i | ·
51 | COC(=O)[C@@]1(Cc2ccccc2)[C@H]2c3cc(C(=O)N(C)C)n(Cc4nc5ccccc5[nH]4)c3C[C@H]2CN1C(=O)c1ccccc1 | i | ·
52 | COc1cc(NC(=O)CN2C(=O)c3ccccc3S2(=O)=O)c(OC)cc1Cl | i | >57
53 | Cc1occc1-c1nnc(SCC(=O)N2CC(=O)Nc3ccccc32)n1CC(C)C | i | >57
54 | COc1ccc2c(c1OC)C(=O)NC(C)=C(C(=O)OC(C)(C)C)C2O (centres undefined) | i | >57
55 | Cc1sc2nc(CN3CCOCC3)nc(N3CCC(C(N)=O)CC3)c2c1C | i | >57
56 | COc1ccc2c(c1)c(=O)oc1cc(OCC(=O)N3CCCC(C)C3)ccc12 (centres undefined) | i | ·
57 | COc1ccc(-c2ccc(=O)n(CC(=O)NCc3ccco3)n2)cc1 | i | >57
58 | COc1cc(NC(=O)c2ccccc2Cl)c(OC)cc1NC(=O)CN1CCOCC1 | i | >57
59 | COc1cc(CNC2CCCC2)cc(OC)c1 | i | ·
60 | CC1=C(C(=O)NCc2ccccc2)C(c2ccc(C)o2)n2ncnc2N1 (centres undefined) | i | >57
61 | Cn1nnnc1NCc1c(F)cccc1Cl | i | ·
62 | COc1ccc(S(=O)(=O)NCc2csc(C)n2)cc1 | i | >57
63 | NC(=O)C1CCN(c2nc(C3CC3)nc3c2nnn3Cc2ccccc2Cl)CC1 | i | >57
64 | CCCn1c(SCC(=O)NCC2CCCO2)nc2c1c(=O)n(C)c(=O)n2C (centres undefined) | i | >57
65 | CC(C)(CN)SCc1ccccc1 | i | ·
66 | CCN(CC)c1ccc(NC(=O)c2ccco2)cc1 | i | ?
67 | O=C(c1cc2sccc2n1Cc1ccccc1)N1CCc2ccccc21 | i | >57
68 | COc1cccc2c(=O)c3c(cnn3C)n(C)c12 | i | >57
69 | Cc1cc(C)n2nc(SCC(=O)N(C)Cc3ccccc3)nc2n1 | i | >57
70 | CCN1CC2=C(OC(N)=C(C#N)C2c2cccs2)/C(=C/c2cccs2)C1 (centres undefined) | i | >57
71 | COC(=O)[C@@]1(Cc2ccc(OC)cc2)[C@H]2c3cc(C(=O)N(C)C)n(Cc4ccc(C(F)(F)F)nc4)c3C[C@H]2CN1C(=O)c1ccccc1 | i | ·
72 | Cc1cc(N)n2ncc(-c3ccccc3)c2n1 | i | 4.8*

Following part:
entry | Structure | TsaE inh | PK Bst
73 | CC(c1nnc(SCC(=O)Nc2sccc2C#N)n1-c1ccc(Cl)cc1)N(C)C (centres undefined) | i | >57
74 | Cc1ccc(N2C(=O)C3C(C2=O)C2C=CC3C23CC3)cc1 (centres undefined) | i | ·
75 | O=C(Nc1ccc(Cl)cc1)N1CCSCC1 | i | >11
76 | CN1[C@@H]2CC(OC(=O)[C@H](CO)c3ccccc3)C[C@H]1[C@@H]1O[C@@H]12 (some centres undefined) | · | >11
77 | COc1ccc(-c2nc(C#N)c(NCCc3ccccc3)o2)cc1 | i | ·
78 | O=C(c1cc2ccccc2oc1=O)N1CCCN(C(=O)c2cc3ccccc3oc2=O)CC1 | i | >57
79 | O=C(c1ccc(N2C(=O)C3CC=C(Cl)CC3C2=O)cc1)N1CCCCC1 (centres undefined) | · | >11
80 | COc1ccc(CCn2c(N3CCN(Cc4ccccc4)CC3)nc3c2c(=O)[nH]c(=O)n3C)cc1 | i | >57
81 | Cc1nc(N2CCN(Cc3ccccc3)CC2)c(C#N)c2c1COC(C)(C)C2 | · | >26
82 | COc1ccc2[nH]cc(CCNc3cc(-c4ccccc4C(F)(F)F)ncn3)c2c1 | i | ·
83 | COc1ccc(OC)c(-n2nnnc2SCC(=O)Nc2ccc(C(=O)N3CCCCC3)cc2)c1 | i | >57
84 | Cc1ccc(C(=O)CSc2ncn[nH]2)cc1 | i | >57
85 | CSC1=NCCN1C(=O)C(C)Oc1ccccc1 (centres undefined) | i | ·
86 | O=C1CSC(c2cn(-c3ccccc3)nc2-c2cccs2)N1CC1CCCO1 (centres undefined) | i | >57
87 | Cc1nc(N)sc1-c1nnc(SCC(=O)Nc2nccs2)n1C | i | >57
88 | O=C(O)C[C@H](Cc1ccc2c(c1)OCO2)C(=O)O | i | ·
89 | Cc1ccc2oc(-c3ccc(NC(=O)c4ccc5c(c4)OCO5)cc3)nc2c1 | i | >57
90 | COc1ccc(S(=O)(=O)Nc2nnc(C(C)C)s2)cc1 | i | >57
91 | CCOc1ccc(N(CC(=O)NC2CCCC(C)C2C)S(=O)(=O)c2c(C)noc2C)cc1 (centres undefined) | i | ·
92 | O=C(NCN1CCN(c2ccccn2)CC1)c1cnccn1 | i | >57
93 | CCOC(=O)COc1ccc2cc(C(=O)OCC)c(=O)oc2c1 | i | ·
94 | CCN(CC)S(=O)(=O)c1ccc(OCC(=O)NCc2ccccc2)cc1 | i | >57
95 | O=C(CN1C(=O)C2C3C=CC(C3)C2C1=O)Nc1ccc2c(c1)OCCO2 (centres undefined) | i | >57
96 | CCOC(=O)CNC(=O)CN1C(=O)CCS(=O)(=O)c2ccccc21 | i | >57
97 | N#CCCn1c(=O)c(-c2cccs2)nc2cnc(Oc3cccc(Cl)c3)nc21 | i | ·
98 | COc1cccc(N(C(=O)CNC(=O)c2ccco2)C(C(=O)NC2CCCC2)c2ccncc2)c1 (centres undefined) | i | >57
99 | Cc1cccc(N(C)C(=O)c2cc3cc4ccc(C)cc4nc3o2)c1 | i | ?
100 | O=C(Nc1nnc(SCC(=O)N2CCCCC2)s1)c1cccs1 | i | >57
101 | CCc1nnc(SCC(=O)Nc2ccccc2)nc1CC | i | >57
102 | Cc1ccc(-c2noc(CN(C(=O)C34CC5CC(CC(C5)C3)C4)C(C)C)n2)cc1 | i | >57
103 | CCC(=O)c1ccc2c(c1)N(CCCN(C)C)c1ccccc1S2 | i | ·
104 | FC(F)(F)c1ccccc1-c1nc(N2CCNCC2)c2ccccc2n1 | i | ·
105 | COC(=O)c1nnn(CC(=O)Nc2cccc(Cl)c2C)c1C(=O)OC | i | >57
106 | NC[C@](O)(CS(=O)(=O)O)c1ccc(Cl)cc1 | i | ·
107 | Cn1c(=O)c2c(nc(NCCCO)n2Cc2cccc(C(F)(F)F)c2)n(C)c1=O | · | >26
108 | CCn1c(SCC(N)=O)nnc1-c1ccc2[nH]c(C)c(C)c2c1 | i | >57
109 | CC(=O)Oc1c2occc2cc2ccc(=O)oc12 | i | ·
110 | COc1ccccc1-c1c(C)c(C)nc(N)c1C#N | i | >57
111 | COC(=O)CSc1nc2sc(C)c(C)c2c(=O)n1C | i | >57
112 | O=C(NCCc1ccncc1)Nc1ccccc1 | i | >57
113 | O=C(c1ccccc1)N1CC(COc2ccccc2)OC(c2cccnc2)O1 (centres undefined) | i | >57
114 | CCOc1cc2[nH]c(=O)n(CCc3ccc(OC)c(OC)c3)c(=O)c2cc1OCC | i | >57
115 | O=C(NCCCN1CCCC1=O)c1ccc2c(c1)NC(=O)C(N1CCOCC1)S2 (centres undefined) | i | >57
116 | CCOC(=O)C1=C(C)Nc2ncnn2C1c1cc(Br)ccc1F (centres undefined) | i | >57
117 | O=C(Nc1cnccn1)c1cccc(C(F)(F)F)c1 | i | >57
118 | CCOC(=O)c1cc2c(ccn2C)n1Cc1ccccc1C | i | >57
119 | c1ccc(Nc2cc(-c3ccccc3)nc3ncnn23)cc1 | i | ·
120 | Cc1cccc(OCC(=O)Nc2ccccc2N2CCCCC2)c1 | i | >57
121 | ON=C1CCCCC1 | i | ·
122 | O=Cc1ccccc1Cl | i | ·
123 | O=C(c1ccc(C(=O)N2CCN(c3ccccc3F)CC2)nc1)N1CCN(c2ccccc2F)CC1 | i | >57
124 | COc1cccc(NC2=NC3(CCCCC3)N=C(N)N2)c1 | i | ?

From PubChem BioAssay
